Rango dissoc inh – inhibition of RanGTP-driven Rango-importin beta dissociation; hit rate 0.071% among 340,000; Biochemical FRET Rango-importin beta, RanGTP-induced dissociation; O95149+P62826; Potency, µM (top dose mostly 46.1 µM), without a hit: top-dose activity change, negative = inhibition; active means falling FRET ratio curve, often poorly fitted, with flat reads before Ran was added; inconclusive means other falling curves, or compound fluorescence or quenching; inactive means flat or rising ratio curve;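 further: potency means the concentration at half of the fitted maximal effect; % of control where 0% means no effect; nearly all actives have a fitted effect of over 45% in size; -100% = wells without RanGTP and RCC1; the record marks most hits as doubtful in a second field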
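Two FRET readings bracket the reaction: one 5 min after compound meets Rango–importin beta, another 45 min after RanGTP-RCC1 (0.6 uM Ran, 0.2 uM RCC1, 2 mM GTP) is added. Only the second defines inhibition.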
GLA inh pH 4.5 – inhibitors of human alpha-galactosidase A at pH 4.5. P06280. 230,000 tested, under 10 active. AID 1467. activity change, negative = inhibition, % at 105 µM. purified enzyme, 4-MU-alpha-Gal fluorescence, pH 4.5; inconclusive = small, poorly fitted or top-dose-only inhibition, or a rising curve; inactive = flat fitted curve, though single readings scatter; no compound was filed as active;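 further: 0% = full activity with enzyme and -100% = basal without enzyme; dose as in the result columns while the protocol names 77 µM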
miR-21 reporter – miR-21 reporter, rising signal; 340,000 tested, under 10 active; AID 2288; Potency, µM (highest dose often 38.3 µM), for inactives: top-dose reporter change, positive = more light; HeLa miR-21 FLuc reporter, luciferase, 48 h; active = well fitted rising curve with a large enough effect; inconclusive = small, poorly fitted or top-dose-only effect; inactive = no such curve, though single readings can be large or run the other way;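 further: % of control where 0% means no effect; miR-21 action dims this reporter so a rising signal means less miR-21 action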
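Compounds were titrated across several concentrations (up to approximately 40 uM) and incubated 48 hours with HeLa miR-21-FLuc reporter cells (miR-21 target sequence downstream of FLuc, endogenous miR-21). Readout was firefly luciferase luminescence after lytic detection reagent.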
Rango complex inh – Rango-importin beta binding inhibition; Q14974; Rango CFP/YFP FRET sensor + importin beta, 45 min; Potency, µM (highest dose often 92.2 µM), for the others: at the top dose inhibition of complex formation; hit rate 0.031% among 340,000; AID 540263; active = rising FRET ratio curve, often small or poorly fitted; inconclusive = mostly compound fluorescence or quenching in the first reads; inactive = flat curves in all reads;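 further: potency means the concentration at half of the fitted maximal effect; 0% = DMSO wells and 100% = buffer wells lacking importin beta; nearly all actives have a fitted effect of over 15% in size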
Target sequence (Q14974 whole entry, looked up): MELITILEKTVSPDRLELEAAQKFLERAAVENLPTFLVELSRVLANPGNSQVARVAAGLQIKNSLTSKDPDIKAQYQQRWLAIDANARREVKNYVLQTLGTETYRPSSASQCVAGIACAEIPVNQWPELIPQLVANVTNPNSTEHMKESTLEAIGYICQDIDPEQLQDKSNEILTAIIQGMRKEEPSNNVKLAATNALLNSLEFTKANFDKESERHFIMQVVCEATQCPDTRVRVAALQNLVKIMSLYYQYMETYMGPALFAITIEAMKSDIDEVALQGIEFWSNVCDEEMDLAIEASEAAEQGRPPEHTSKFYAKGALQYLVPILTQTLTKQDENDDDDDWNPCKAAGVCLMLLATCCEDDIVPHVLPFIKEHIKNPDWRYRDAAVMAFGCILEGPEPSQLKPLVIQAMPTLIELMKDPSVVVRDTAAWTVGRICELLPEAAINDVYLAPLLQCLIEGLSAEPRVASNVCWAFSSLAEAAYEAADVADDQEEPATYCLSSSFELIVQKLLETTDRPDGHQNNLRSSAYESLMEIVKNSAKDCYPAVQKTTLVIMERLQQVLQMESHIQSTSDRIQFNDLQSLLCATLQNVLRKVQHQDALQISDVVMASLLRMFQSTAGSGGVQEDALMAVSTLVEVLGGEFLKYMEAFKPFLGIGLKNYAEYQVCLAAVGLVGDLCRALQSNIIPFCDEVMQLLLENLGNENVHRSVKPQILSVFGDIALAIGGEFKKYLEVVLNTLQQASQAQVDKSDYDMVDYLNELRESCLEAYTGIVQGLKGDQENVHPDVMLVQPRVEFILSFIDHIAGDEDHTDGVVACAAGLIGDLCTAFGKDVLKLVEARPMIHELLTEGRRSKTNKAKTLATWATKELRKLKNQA
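Inhibition scored from the CFP 486 nm/YFP 530 nm FRET ratio 45 min after adding 0.125 microM importin beta to 50 nM Rango biosensor preincubated 5 min with compound (room temperature, PBS with DTT, Tween-20, BSA). No-importin wells as positive control.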
The depositor's hits bear a star; ? = inconclusive; · = not tested or not shown.

SMILES	GLA inh pH 4.5	miR-21 reporter	Rango complex inh	Rango dissoc inh
CCc1noc(C)c1C(=O)NNC(=O)c1ccc(Br)cc1	·	·	-0.6%	-8%
O=C(COc1ccccc1)N1CCN(C(=O)c2cccc(F)c2)CC1	0	1%	0.7%	-8%
O=C(/C=C/Nc1ccccc1O)c1ccco1	-9	-62%	?	?
Cc1ccccc1C(=O)Nc1cccc(NC(=O)c2ccc(F)cc2)c1	·	5%	8.4%	10%
CN(CC(=O)Nc1ccc(Cl)cc1)C(=O)COc1ncnc2ccccc12	·	·	-2.8%	1%
Cc1ccc(S(=O)(=O)N2CCOCC2)cc1NC(=O)CN1CCC(Cc2ccccc2)CC1	-18	24%	0.8%	0%
COC(=O)c1cc(NC(=O)C2C3C=CC(C3)C2C(=O)O)cc(C(=O)OC)c1 (centres undefined)	-2	-4%	-4.2%	0%
Cc1ccc(C(=O)NCC(=O)NCC(=O)OCC(=O)c2cccs2)cc1	-4	-11%	-1.9%	2%
CCCN(CCC)C1CC(=O)N(Cc2ccccc2)C1=O (centres undefined)	7	-3%	2.6%	6%
O=C(CN1CCN(S(=O)(=O)c2ccc3c(c2)OCCO3)CC1)Nc1cccc(F)c1	·	·	-1.2%	-4%
CCCC(=O)Nc1nc2ccc(NC(=O)c3cccnc3)cc2s1	-2	2%	5.9%	32%
CSc1cc(SC)ncn1	·	·	-7.2%	-2%
COc1ccc(N(C(=O)c2ccco2)C(C(=O)NC2CCCCC2)c2ccccc2)cc1 (centres undefined)	·	·	4.5%	3%
NNC(=O)/C(=C\c1ccc(Br)cc1)NC(=O)c1cccs1	1	11%	3.3%	14%
Cc1ccc2cccc(OCc3nnc(SCC(=O)O)n3C)c2n1	3	2%	2.1%	2%
O=C(NCc1cccnc1)[C@@H]1CC=C[C@@H]2CCN(Cc3ccc(Cl)c(Cl)c3)C(=O)[C@@H]21	·	·	-0.7%	?
O=C(NCCSCc1ccccc1)c1ccccc1	1	-14%	3.0%	-1%
CNS(=O)(=O)c1cccc(C(=O)OCC(=O)Nc2ccc(Cl)cn2)c1	5	1%	2.8%	-4%
Cc1ccc(-c2cc(C(F)(F)F)n3ncc(C(=O)O)c3n2)cc1	-3	-4%	4.8%	-2%
CC(=O)Nc1ccc(S(=O)(=O)Nc2ccc(Cl)cn2)cc1	·	2%	-0.6%	0%
CCN1CCN(Cc2ccc(NC(=O)Nc3ccccc3)cc2)CC1	2	-32%	-2.5%	-7%
CCOC(=O)C1=C(C)N(c2ccc(Cl)cc2)C(=O)NC1c1cccc([N+](=O)[O-])c1 (centres undefined)	-4	2%	-0.8%	6%
COCCNC(=O)c1cccc(OC2CCN(Cc3ccccc3OC(F)F)CC2)c1	·	7%	-3.3%	-14%
N#CC(=C=[N-])c1nc2ccccc2nc1-[n+]1cccc(NC(=O)c2ccc(F)cc2)c1	3	7%	·	·
CC(=O)c1cccc(NC(=O)N2CCCC2C(=O)NCCc2ccccc2)c1 (centres undefined)	-4	-2%	-1.2%	-5%
Cn1c(=O)c2c(ncn2CC(=O)NCc2cccnc2)n(C)c1=O	3	-2%	6.0%	4%
COc1ccc(CCNS(=O)(=O)c2ccccc2)cc1OC	-7	2%	?	-6%
O=C(/C=C/c1ccco1)Nc1ccc(N2CCCC2)cc1	5	-61%	1.7%	-19%
Cc1cc(C)cc(NC(=S)NC(=O)C2CC2)c1	·	-5%	-3.3%	0%
CC(C)C(OC(=O)c1ccco1)C(=O)NCc1ccco1 (centres undefined)	0	-5%	1.7%	-9%
CCOc1ccc(S(=O)(=O)Nc2ccc(Cl)cn2)c(C)c1C	-9	-6%	-5.1%	-3%
CCCCCCOC(=O)NCC(O)c1ccccc1 (centres undefined)	1	-38%	4.9%	1%
CCC(C)N=CC1=C(O)C(C(=O)OC)C(C)(C)CC1=O (centres undefined)	-4	-3%	-0.4%	-4%
CSCCC(NC(=O)c1ccccc1Cl)C(=O)NNC(=O)c1ccccc1O (centres undefined)	·	·	2.8%	8%
CCn1nnc(-c2ccccc2NC(=O)c2cc(OC)cc(OC)c2)n1	2	-1%	-4.1%	7%
CCN(Cc1ccccc1)S(=O)(=O)CCNC(=O)c1ccc(OC)cc1	·	·	4.0%	32%
Cc1[nH]c2ccccc2c1C(O)CN1CCN(c2cccc(C(F)(F)F)c2)CC1 (centres undefined)	?	9%	0.0%	-6%
CCN1C(=O)[C@@H]2[C@H](C1=O)[C@@H]1C(=O)Nc3ccccc3C(=O)N1[C@@H]2c1cccc(C)c1	·	·	0.6%	18%
O=C(CSc1nc2ccccc2c(=O)[nH]1)Nc1ccccc1N1CCOCC1	1	?	-1.6%	29%
CC/C(=N/NC(=O)c1ccc2c(c1)OCO2)c1ccccc1O	·	·	?	?
Fc1cc(F)c(F)c(SCCc2ccncc2)c1F	7	-7%	1.8%	4%
Cn1c(=O)c2c(ncn2CC(=O)OCc2ccccc2)n(C)c1=O	0	0%	-1.7%	-3%
Cc1onc(-c2ccccc2)c1C(=O)NCc1ccccn1	1	-7%	0.0%	1%
O=C(c1cc(-c2ccccc2O)on1)N1CCCC1	-8	-57%	-0.1%	1%
CCC(=O)N1CCN(c2cc(NCC3CCCO3)c(F)cc2[N+](=O)[O-])CC1 (centres undefined)	-20	0%	-1.5%	2%
CC(NC(=O)Cn1nc(C(F)(F)F)c2c1CCC2)c1ccccc1 (centres undefined)	-5	1%	-0.1%	-5%
CNC(=O)c1cccc(N2CCCC2=O)c1	-4	-3%	-3.0%	-6%
CC/C(C)=N/Nc1cccc([N+](=O)[O-])c1	0	9%	-0.9%	-2%

As entered above.
`CC/C(C)=N/Nc1cccc([N+](=O)[O-])c1` | Rango dissoc inh: -2%
`CCC(=O)N1CCN(c2cc(NCC3CCCO3)c(F)cc2[N+](=O)[O-])CC1` (centres undefined) | miR-21 reporter: 0%
`O=C(c1cc(-c2ccccc2O)on1)N1CCCC1` | GLA inh pH 4.5: -8
`Cc1onc(-c2ccccc2)c1C(=O)NCc1ccccn1` | Rango dissoc inh: 1%

Other structures
SMILES	GLA inh pH 4.5	miR-21 reporter	Rango complex inh	Rango dissoc inh
CCOC(=O)C1CCN(CC(O)COCc2ccccc2)CC1 (centres undefined)	·	-1%	1.4%	0%
O=C(Nc1cccc(C(F)(F)F)c1)C(Sc1cccc[n+]1[O-])c1ccccc1 (centres undefined)	-1	-8%	-0.5%	0%
O=C(NC1CCN(Cc2ccccc2)CC1)C1CCN(c2nnc(-n3cccc3)s2)CC1	2	-5%	-2.2%	-18%
O=C1CN(C(=O)COc2ccccc2)CCN1	0	1%	0.9%	?
Cc1noc(C)c1S(=O)(=O)Nc1ccc2c(c1)CC(=O)N([C@H](C)CO)C[C@H](C)[C@H](CN(C)S(=O)(=O)c1ccc(F)cc1)O2	·	·	-2.3%	2%
O=C(COC(=O)Cc1ccc(Cl)cc1Cl)NCCC1=CCCCC1	-4	1%	-1.0%	11%
Cc1cc(C(=O)COC(=O)/C=C/c2ccco2)c(C)n1C	·	·	-1.6%	-6%
COc1ccc(N(CC(=O)NC2CCCCC2)S(=O)(=O)c2cccs2)cc1	·	·	7.0%	-15%
COc1cc(NC(=O)C2CCCO2)c(C(=O)O)cc1OC (centres undefined)	-4	2%	-0.1%	11%
O=C(Cc1c(F)cccc1Cl)Nc1ccc(-n2cnnn2)cc1	4	-3%	-0.1%	11%
C=CCN(CC=C)C(=O)CCc1nnc(CCc2c[nH]c3ccccc23)o1	10	-25%	-0.1%	25%
O=C(CSc1nnc(COc2ccc(Cl)cc2)o1)Nc1ccc(N2CCOCC2)cc1	·	·	-0.3%	-9%
COc1ccc(NC(=O)COC(=O)Cc2cccs2)cc1OC	·	·	1.4%	-7%
CCOc1ccccc1CNCCO	-2	-5%	0.2%	-7%
Cc1cccc(CC2S/C(=N/c3cccc(C)n3)NC2=O)c1 (centres undefined)	0	-13%	1.0%	-15%
COc1ccccc1NC(=O)c1ccc(COc2ccccc2OC)o1	-13	-11%	-2.9%	-1%
O=C(NCc1ccc(F)cc1)C1CCCN(S(=O)(=O)c2cccc3nonc23)C1 (centres undefined)	·	-2%	0.4%	-13%
COC(=O)c1cc2sccc2n1CC(=O)N(C)c1ccccc1	-23	9%	-2.0%	17%
CCOC(=O)C(C(=O)NCC1CCCO1)C1CCCCC1 (centres undefined)	-13	-5%	0.1%	-14%
CC(=O)c1cccc(OCc2cc(C(=O)NC(C)Cc3cccnc3)no2)c1 (centres undefined)	·	-13%	4.6%	0%
O=C(NCCCN1CCCC1=O)c1cn(-c2ccccc2)nc1-c1ccccc1	·	-9%	2.3%	24%
COCCOC1CCN(C(=O)C2CCC(=O)N(CCc3cccc(F)c3)C2)CC1 (centres undefined)	·	-6%	?	-1%
COc1cccc(C2C(C#N)=C(N)N(N(C)C)C3=C2C(=O)CCC3)c1OC (centres undefined)	·	0%	1.8%	1%
O=[N+]([O-])c1cccc(S(=O)(=O)NCC2CCCO2)c1 (centres undefined)	-14	-4%	0.4%	-3%

Record cards (already shown).
COc1ccc(NC(=O)COC(=O)Cc2cccs2)cc1OC as listed: GLA inh pH 4.5: ·; miR-21 reporter: ·; Rango complex inh: 1.4%; Rango dissoc inh: -7%
CCn1nnc(-c2ccccc2NC(=O)c2cc(OC)cc(OC)c2)n1 as listed: GLA inh pH 4.5: 2; miR-21 reporter: -1%; Rango complex inh: -4.1%; Rango dissoc inh: 7%

Other records follow.
SMILES	GLA inh pH 4.5	miR-21 reporter	Rango complex inh	Rango dissoc inh
CC(c1cccnc1)N(CCN(C)C)C(=O)Nc1ccc(Cl)c(Cl)c1 (centres undefined)	·	·	-1.3%	15%
COc1ccc(N2CCN(C(=O)c3cc(S(=O)(=O)N4CCCCCC4)ccc3OC)CC2)cc1	·	·	-1.5%	0%
COc1ccc(CCNC(=O)CSc2nnc3ccc(-c4cccnc4)nn23)cc1OC	1	0%	-7.7%	2%
CCc1ccc(NC(=O)CN2CCc3ccccc3C2)cc1	4	-25%	4.0%	3%
CC(=O)Nc1ccc(S(=O)(=O)NCCc2c[nH]c3ccc(C)cc23)cc1	·	4%	-2.1%	9%
COc1cc2c(cc1OC)CN(C(=O)CCOc1ccccc1)CC2	·	12%	-1.0%	-2%
CCOc1ccc(OCc2ccc(C(=O)NCC3CCCO3)o2)cc1 (centres undefined)	2	-15%	-0.3%	3%
CCN(CC)C(=O)CSc1nnc(-c2cc3ccccc3cc2O)n1CC	-4	8%	0.5%	-2%
Cc1ccc(S(=O)(=O)NC2CC(=O)N(c3ccc4c(c3)OCCO4)C2)cc1 (centres undefined)	·	·	?	0%
COC(=O)c1ccc(CSc2nc3ccccc3c(=O)n2-c2ccccc2)o1	0	-21%	-0.3%	-12%
Cc1cccc(/C=N/NC(=O)c2cc(-c3cccnc3)nc3ccccc23)c1	-11	-8%	-1.2%	3%
O=C(CN1CCCCC1)N/N=C/c1cc2ccccc2nc1Cl	-4	-9%	0.2%	1%
c1ccc(CCNc2cnccn2)cc1	·	-24%	-0.3%	-7%
O=C(CNC(=O)c1ccc(Cl)cc1)OCCCOC(=O)CNC(=O)c1ccc(Cl)cc1	·	-3%	-2.6%	8%
Fc1ccc2nc(C3CCCCN3Cc3nc(CC4CC4)no3)[nH]c2c1 (centres undefined)	2	1%	?	5%
CCCOc1cc2c(C#N)c(N3CCCC3)nc(N)c2c(N)n1	·	·	?	-26%
c1ccc(C(c2ccccc2)c2noc(CN3CCN(CC4CC4)CC3)n2)cc1	-4	2%	-4.9%	-12%
CCCc1nc(SCC(=O)Nc2ccccc2)c2c(=O)n(C)c(=O)n(C)c2n1	4	0%	-1.0%	11%
COc1ccc(CNC(=O)C(C)OC(=O)CO/N=C(\C)c2ccc3c(c2)OCO3)cc1 (centres undefined)	·	·	1.0%	?
Cc1noc(C)c1COC(=O)C1CCN(S(=O)(=O)c2c(Cl)cccc2Cl)CC1	·	·	-1.1%	-11%
COc1ccc(Br)cc1/C=N/N1C(=O)CSC1=S	·	1%	2.9%	-13%

Screens: PubChem BioAssay, National Center for Advancing Translational Sciences (NCATS)

A portion of the library. The share of hits here may be higher or lower than overall.
